Screens from PubChem.
StopGo FLuc – FMDV 2A StopGo reporter, firefly signal. Potency, µM (series often up to 57.5 µM), inactives show at the highest dose signal change, negative = less light. 120,000 tested, 0.23% active. AID 1745856. HEK cells with a luciferase reporter of 2A StopGo recoding; active = well fitted falling curve with a large enough effect; inconclusive = small, poorly fitted or top-dose-only effect; inactive = no such curve, though single readings can be large or run the other way; note: nearly all actives have a fitted effect of over 60% in size; overnight with compound
StopGo RLuc – lowers the Renilla signal of an FMDV 2A StopGo reporter; Potency, µM (series often up to 57.5 µM), inactives show top-dose signal change, negative = less light; 120,000 tested, 0.32% active; HEK cells with a luciferase reporter of 2A StopGo recoding; active means well fitted falling curve with a large enough effect; inconclusive means small, poorly fitted or top-dose-only effect; inactive means no such curve, though single readings can be large or run the other way; note: nearly all actives have a fitted effect of over 55% in size; overnight with compound
The depositor's hits bear a star; ? = inconclusive; & = joins results of further samples; [ ] = another dose, or the depositor's remark. % is set by controls: 0 for no effect and ±100 for the full control effect; potency is the fitted concentration of half-maximal effect.

Values run as follows: StopGo FLuc | StopGo RLuc
(1) Cc1c(NC(=O)CC(C)C)cccc1-c1nc2cccnc2s1
    8% | -31%
(2) COc1cccc(NC(=O)CSC2=Nc3ccccc3C3=NC(CCC(=O)NCc4ccco4)C(=O)N23)c1 (stereo not given)
    -21% | 17%
(3) COc1ccc(-n2ccn(CC(=O)NCc3ccc(C)cc3)c(=O)c2=O)cc1OC
    -17% | -10%
(4) S=c1[nH]c2cc(Cl)ccc2s1
    42%[activator] | 9%
(5) O=C(NC1CC1)c1cc2sccc2n1Cc1ccccc1Cl
    -6% | -11%
(6) CC(C)CNc1cccc2c1S(=O)(=O)N(Cc1cn(Cc3ccc(Cl)cc3)nn1)Cc1ccccc1O2
    3% | 84%[activator]
(7) COc1cc2nc(SCC(=O)Nc3ccccc3C)n3nc(CCn4c(C)nc5ccccc54)nc3c2cc1OC
    -6% | -10%
(8) Cc1nc2ccccc2cc1C(=O)O
    15% | 12%
(9) CCCN(CC(=O)NC(=O)NC1CCCC1)Cc1ccc(C#N)cc1
    7% | 11%
(10) CCSc1nnc(-c2cc(Br)ccc2NC(C)=O)c(=O)[nH]1
    9% | -3%
(11) COc1cc(OC)c(NC2=NS(=O)(=O)C(c3ccccc3)=C2C)cc1Cl
    -1% | -6%
(12) N=C(N)SCc1ccc([N+](=O)[O-])cc1
    312%[activator] | 39%[activator]
(13) Cc1ccc(C)c(NC(=O)c2ccc3[nH]c(C)c(C)c3c2)c1
    163%[activator] | -2%
(14) COc1ccc(OCc2nnc(-c3ccccc3)o2)cc1
    215%[activator] | 41%[activator]
(15) CCC[n+]1c(NCc2cc(Br)cc(Br)c2[O-])[nH]c2ccccc21
    4% | -6%
(16) O=C(Nc1cccc(Cl)c1)C1CCCN1S(=O)(=O)c1cccc2cccnc12 (stereo not given)
    8% | 41%[activator]
(17) COc1ccc(NC(=O)c2ccc(Cn3cc(Cl)cn3)cc2)cc1OC
    23% | -1%
(18) Cc1ccc(NC(=O)c2nccnc2N)cc1Cl
    144%[activator] | 20%
(19) CCOc1ccc(S(=O)(=O)[C@H]2CS(=O)(=O)C[C@@H]2N2CCC(C(=O)OC)CC2)cc1
    ? | -5%
(20) COc1ccc(NC(=O)c2c(C(=O)Nc3ccccc3)sc3nc(C)cc(=O)n23)cc1
    18% | -3%
(21) O=C(Nc1nc(-c2ccc(Cl)cc2Cl)cs1)C1CCN(C(=O)c2ccco2)CC1
    ? | 35µM*
(22) CSc1cccc(NC(=O)CC(c2ccc(F)cc2)N2Cc3ccccc3C2=O)c1 (stereo not given)
    -23% | 97%[activator]
(23) CCCc1cc(=O)oc2c(C)c(OCC(=O)OC(C)(C)C)ccc12
    -8% | 7%
(24) COC(=O)COC(=O)c1oc2ccc(OC)cc2c1C
    25% | -15%[1.06 µM]
(25) Cc1ccc(CN2COc3c(Cl)cc4c(-c5ccccc5)cc(=O)oc4c3C2)cc1
    -13% | -12%
(26) OCCCNc1nc(-c2cccs2)nc2ccccc12
    7% | -2%
(27) CCOc1ccc(-c2cccc(NS(=O)(=O)c3ccc(F)cc3F)c2)nn1
    10% | 126%[activator]
(28) COc1ccc(C(=O)Nc2c(NCc3ccccc3)c3ccccc3oc2=O)cc1Br
    -3% | -9%
(29) O=c1[nH]c(Nc2ccccc2)nc2nccc(-c3cccs3)c12
    13% | -2%
(30) COc1ccccc1CNC(=O)CN1C(=O)COc2ccc(S(=O)(=O)Nc3ccccc3)cc21
    10% | 249%[activator]
(31) CCOC(=O)C1=C(CN2CCN(c3cc(C)ccc3C)CC2)NC(=O)NC1c1ccccc1 (stereo not given)
    7% | 3%
(32) CCOC(=O)/C(C#N)=C\c1cc2ccc(C)cc2nc1N1CCCCC1
    19% | 16%
(33) COc1ccc(-n2c(=O)c(C#N)cc3c(=O)n4cccc(C)c4nc32)cc1
    -6% | -7%
(34) Cn1c(/C(C#N)=C/c2ccc(C(F)(F)F)cc2)nc2ccccc21
    0% | -4%
(35) N#CC1(NC(=O)COC(=O)Cc2n[nH]c(=O)c3ccccc23)CCCCC1
    -4% | 5%
(36) CCn1cc2nc(SCc3cccc(Cl)c3)n(Cc3ccc(C)cc3)c(=O)c2n1
    10% | -11%
(37) COc1cc2c(cc1NC(=O)C(C)Oc1ccc(Cl)cc1Cl)oc1ccccc12 (stereo not given)
    -5% | -7%
(38) CC(NC(=O)CSc1ccc2ccccc2c1)c1ccc2c(c1)OCCO2 (stereo not given)
    16% | -7%[1.06 µM]
(39) N#Cc1cccc(C(=O)N2CCN(c3oc(C4CC4)nc3C#N)CC2)c1
    -11% | -14%
(40) COCC(=O)NCc1cccc(C)c1
    0% | 7%
(41) C=C(C)CN1CCN(c2nc3c(c(=O)[nH]c(=O)n3C)n2Cc2ccc(Cl)cc2)CC1
    -5% | -5%
(42) CCCN1CCS(=O)(=O)N(Cc2cn(Cc3ccc(C)cc3)nn2)C(C(=O)OC)C1 (stereo not given)
    -3% | -5%
(43) CCN(CC)S(=O)(=O)c1cc([N+](=O)[O-])ccc1N/N=C(/C)c1cccs1
    7% | 13%
(44) Cc1ccc2c(=O)cc(CSCC(=O)Nc3nnc(C)s3)[nH]c2c1
    12% | 15%
(45) CN(C)c1ccc(/C=N/NC(=O)c2cccs2)cc1Br
    274%[activator] | 0%
(46) Clc1cccc(CNc2n[nH]c(-c3ccco3)n2)c1
    109%[activator] | 2%
(47) CC(C)c1ccc(C2N3CC4(C)CN2CC(c2ccccc2)(C3)C4=O)cc1 (stereo not given)
    -8% | -15%
(48) Cc1ccc(OCCCOc2ccc(Cl)cc2/C=N/NC(=O)c2ccccc2)cc1C
    26% | 7%
(49) Clc1ccccc1C1=Nc2ccc(Br)cc2C(c2ccccc2Cl)=Nc2ccc(Br)cc21
    22% | 10%
(50) CCN(CC)CCCNC(=O)CSc1nc2nc(C)c(Cc3ccccc3C)c(C)n2n1
    -20% | -10%
(51) CCCNC(=O)Nc1cccc(C(N)=O)c1C
    -10% | 2%
(52) O=Cc1cccn1-c1ccccc1Cl
    9% | 7%
(53) Cc1cc(C)c(NC(=O)Cn2c(=O)n(CC(=O)NCCc3ccccc3)c(=O)c3ccccc32)c(C)c1
    -20% | -9%
(54) CC(C)(Oc1ccc(Br)cc1)C(=O)Nc1cc(-c2nc3ccccc3[nH]2)ccc1Cl
    -1% | -6%
(55) CCc1ccc(-n2c(=O)c3ccccc3n(Cc3ccccc3C#N)c2=O)cc1
    -13% | -4%
(56) CC1=C(C(=O)Nc2ccccc2)C(c2ccncc2)n2nc(SCc3ccccc3)nc2N1 (stereo not given)
    -13% | -9%
(57) CCC(Sc1nnc2c(=O)n(-c3ccc(F)cc3)ccn12)C(=O)Nc1cc(C)ccc1C (stereo not given)
    -11% | 1%
(58) CCN(CC)C(=S)Nc1ccccc1Cl
    4% | 8%
(59) Cc1ccc(-c2nnc(Nc3cccc(O)c3)c3ccccc23)cc1S(=O)(=O)N1CCN(C)CC1
    -16% | 2%
(60) CCc1c(CN2CCN(c3ccc(F)cc3)CC2)csc1C
    -4%&-6% | -17%&5%

Structures listed so far containing fluorine (five):
Values run as follows: StopGo FLuc | StopGo RLuc
(22) CSc1cccc(NC(=O)CC(c2ccc(F)cc2)N2Cc3ccccc3C2=O)c1 (stereo not given)
    -23% | 97%[activator]
(27) CCOc1ccc(-c2cccc(NS(=O)(=O)c3ccc(F)cc3F)c2)nn1
    10% | 126%[activator]
(34) Cn1c(/C(C#N)=C/c2ccc(C(F)(F)F)cc2)nc2ccccc21
    0% | -4%
(57) CCC(Sc1nnc2c(=O)n(-c3ccc(F)cc3)ccn12)C(=O)Nc1cc(C)ccc1C (stereo not given)
    -11% | 1%
(60) CCc1c(CN2CCN(c3ccc(F)cc3)CC2)csc1C
    -4%&-6% | -17%&5%

One compound at a time, from the list above. Order of screens: StopGo FLuc | StopGo RLuc
`CCN(CC)C(=S)Nc1ccccc1Cl` across the screens: 4% | 8%
`CCc1ccc(-n2c(=O)c3ccccc3n(Cc3ccccc3C#N)c2=O)cc1` across the screens: -13% | -4%

Remaining list, next part
Values run as follows: StopGo FLuc | StopGo RLuc
(61) COc1ccc(-n2c(=O)c(C#N)cc3c(=O)n4cccc(C)c4nc32)c(OC)c1
    -8% | -10%
(62) ClCc1coc(-c2ccc(Cl)cc2)n1
    75%[activator] | -10%[1.06 µM]
(63) COc1ccc(/C=C\c2onc(C)c2S(=O)(=O)N2CCC(C(=O)Nc3ccc(Cl)cc3)CC2)cc1
    ? | ?
(64) Cc1ccccc1NC(=O)CSc1nnc(-c2cccc(Cl)c2)o1
    159%[activator] | 10%
(65) Cc1ccc(-n2c(SCC(=O)N3CCCc4ccccc43)nc3c([nH]c4ccccc43)c2=O)cc1
    23% | -4%
(66) Cc1ccc(-c2cc(-c3ccc4c(c3)NC(=O)CO4)nc3c2COc2ccc(C)cc2-3)cc1
    -6% | -6%
(67) Cc1ccc(C(CNC(=O)c2cc(-c3ccccc3)on2)N2CCN(C)CC2)o1 (stereo not given)
    -7% | -19%
(68) Cc1c(C(=O)N2CCCC2)c(S(=O)(=O)N2c3ccccc3CC2C)c(C)n1C (stereo not given)
    28% | 42%[activator]
(69) C=CCNC(=O)c1ccccc1N
    0% | -14%
(70) CC(=O)c1ccc(N2CCN(S(=O)(=O)c3ccc(-c4cc(C)[nH]n4)s3)CC2)cc1
    39%[activator] | 63%[activator]
(71) COc1cccc(NC(=O)Cn2c(=O)n(-c3ccccc3)c(=O)c3ccc(C(=O)NCc4ccc5c(c4)OCO5)cc32)c1
    5% | 124%[activator]
(72) CCOc1ccc(NC(=O)Nc2c(C)nn(Cc3ccc(Cl)c(Cl)c3)c2C)cc1
    3% | -1%
(73) CCOC(=O)c1ccc(N2C(=O)c3n[nH]c(C)c3C2c2ccc(O)c(OC)c2)cc1 (stereo not given)
    -25%&5% | -1%&41%
(74) Cc1cc(C(O)(C(F)(F)F)C(F)(F)F)cc(C)c1OC(=O)c1ccccc1F
    44%[activator] | -30%
(75) CCOc1ccc(CCNC(=O)c2ccc(CS(=O)(=O)Cc3ccccc3Cl)o2)cc1OCC
    ? | ?
(76) Cc1c(-n2nnnc2SC(C(=O)N2CCCCC2)c2ccccc2)c(=O)n(-c2ccccc2)n1C (stereo not given)
    0% | 39%[activator]
(77) CCCCOc1ccc(C2C(C(=O)Nc3ccccc3OC)=C(C)Nc3nnnn32)cc1OC (stereo not given)
    -14% | -19%
(78) Cc1ccc(C(=O)Nc2ccccc2C(=O)OCc2cc(=O)n3nc(C(C)C)sc3n2)cc1
    8% | 2%
(79) O=C(NCc1ccncc1)c1cc(C2CC2)nc2ccccc12
    0% | 20%
(80) Cc1cc2c(cc1S(=O)(=O)N(CCO)Cc1ccccc1)OCC(=O)N2
    -16% | 25%
(81) CCc1cccc(C)c1NC(=O)C(CC)Sc1nc2ccncc2[nH]1 (stereo not given)
    -8% | 11%
(82) COC(=O)C1=C(C)N(c2ccc(F)cc2)C(=O)CC1C(=O)Nc1ccc(C(C)=O)cc1 (stereo not given)
    -1% | 0%
(83) CCOc1ccc(NC(=O)Cn2nnc(-c3nc(-c4ccncc4)no3)c2N)cc1
    1% | -6%
(84) CCCCSc1nnc([C@@H](N)Cc2c[nH]c3ccccc23)o1
    7% | -4%
(85) COc1cc(F)ccc1C(C)=O
    2% | 7%
(86) CCCCN(CC)CCCNC(=O)c1ccc2c(c1)N(Cc1ccc(C)cc1)C(=O)c1ccccc1S2
    -9% | 4%
(87) Cc1ccc(Cl)cc1-n1ncc2c(NC3CCCC3)ncnc21
    ? | ?
(88) COc1ccc(NC(=O)N2CCc3c([nH]c4ccc(OC)cc34)C2c2ccc(OC)cc2)cc1 (stereo not given)
    -10% | -36%
(89) COCCn1cnnc1SCc1cccc(Cl)c1
    -2% | 7%
(90) CCc1ccccc1NC(=O)Nc1cc(C(=O)NCc2ccccc2OC)ccc1N1CCCC1
    -7% | 0%
(91) Cn1cnc2c1c(=O)n(CCCSCc1ccccc1)c(=O)n2C
    16% | 10%
(92) Cc1ccc(-n2c(=O)c3sc4ccccc4c3n(C)c2=O)cc1F
    -7% | -12%
(93) CCCCN(CC)CCNC(=O)Cn1cnc2sc(C)c(S(=O)(=O)N3CCC(C)CC3)c2c1=O
    6% | 33%[activator]
(94) CCC(C)NC(=O)COC(=O)c1cc(C)cc(C)c1 (stereo not given)
    -7% | -9%
(95) COc1ccc(C2CC(=O)c3cc(-c4nc(-c5ccc(Cl)cc5)cs4)c(=O)[nH]c3C2)cc1 (stereo not given)
    1% | -7%
(96) COc1cc(OC)c(NS(=O)(=O)c2cc3c(cc2C)N(C(C)=O)CCO3)cc1Cl
    7% | 210%[activator]
(97) COCCCNc1nc(NCc2ccc(C)cc2)c2cnn(C)c2n1
    -15% | -14%
(98) Cc1ccc2nc(N3CCN(C(=O)CC4(CC(=O)O)CCCC4)CC3)nc(-c3ccccc3)c2c1
    13% | 17%
(99) CCc1ccc(OCC(=O)N(Cc2ccc(C)o2)C2CCS(=O)(=O)C2)cc1 (stereo not given)
    0% | 0%
(100) O=C(CSc1ncnc2ccccc12)NN1C(=O)NC2(CCCCC2)C1=O
    -1% | -16%

6 records drawn at random from the list so far:
Values run as follows: StopGo FLuc | StopGo RLuc
(95) COc1ccc(C2CC(=O)c3cc(-c4nc(-c5ccc(Cl)cc5)cs4)c(=O)[nH]c3C2)cc1 (stereo not given)
    1% | -7%
(83) CCOc1ccc(NC(=O)Cn2nnc(-c3nc(-c4ccncc4)no3)c2N)cc1
    1% | -6%
(92) Cc1ccc(-n2c(=O)c3sc4ccccc4c3n(C)c2=O)cc1F
    -7% | -12%
(89) COCCn1cnnc1SCc1cccc(Cl)c1
    -2% | 7%
(96) COc1cc(OC)c(NS(=O)(=O)c2cc3c(cc2C)N(C(C)=O)CCO3)cc1Cl
    7% | 210%[activator]
(100) O=C(CSc1ncnc2ccccc12)NN1C(=O)NC2(CCCCC2)C1=O
    -1% | -16%
